# Cruzain inh Det = inhibitors of Trypanosoma cruzi cruzain with detergent; P25779; purified cruzain, Z-FR-AMC fluorescence, 0.01% Triton; Potency, µM, inactives show max response, negative = inhibition, most hits filed as inhibitors; 200,000 compounds, 0.43% hits; AID 1478;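 also: plate controls were neutral wells for no effect and buffer without enzyme for full effect; nearly all actives have a fitted effect of over 40% in size; top concentration of the series not given in the record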
# Target sequence (P25779 123-467 limits assumed): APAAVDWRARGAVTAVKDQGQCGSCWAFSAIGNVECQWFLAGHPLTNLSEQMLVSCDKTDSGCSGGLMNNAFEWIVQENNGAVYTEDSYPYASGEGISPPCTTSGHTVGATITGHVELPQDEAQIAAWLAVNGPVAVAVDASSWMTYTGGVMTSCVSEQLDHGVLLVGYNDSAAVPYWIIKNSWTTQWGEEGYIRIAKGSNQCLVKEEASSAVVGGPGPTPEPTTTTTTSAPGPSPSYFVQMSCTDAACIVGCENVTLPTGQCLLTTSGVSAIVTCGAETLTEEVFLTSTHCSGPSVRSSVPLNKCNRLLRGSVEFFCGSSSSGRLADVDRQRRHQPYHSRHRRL
#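 Read-out: AMC fluorescence (360 nm excitation, 450 nm emission), four reads over 2 min, first-to-third difference used. Conditions: cruzain 1.5 nM, Z-FR-AMC 2 uM, pH 5.5 acetate, 5 mM DTT, 0.01% Triton X-100.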
# Marburg entry inh = Marburg virus entry inhibition; Marburg virus pseudotyped entry inhibition, cell reporter; control for the full effect not named in the record; about a third of the inactives were read at about 46 µM; AID 540276; Potency, µM (top dose mostly 37.8 µM), for inactives: at the top dose activity change, negative = inhibition, usual class: inhibitors; 300,000 compounds, 1.8% hits; active = well fitted inhibition curve with a large enough effect; inconclusive = small, poorly fitted or top-dose-only effect, or effect the other way; inactive = flat fitted curve, though single readings scatter; tested in HEK293 cells; about a fifth of its hits are not listed in these tables; also: % is scaled to controls: 0 for no effect and ±100 for the full control effect; luciferase read-out
# StopGo reporter = FMDV 2A StopGo reporter, luciferase signal. human cells with a luciferase reporter of 2A StopGo recoding; control for the full effect not named in the record. Potency, µM (doses to about 57.9 µM), for inactives: at the top dose signal change, negative = less light. 410,000 compounds, 1.2% hits. AID 1159524; active = well fitted falling curve with a large enough effect; inconclusive = small, poorly fitted or top-dose-only effect; inactive = no such curve, though single readings can be large or run the other way; tested in HEK293T cells; also: % is scaled to controls: 0 for no effect and ±100 for the full control effect; nearly all actives have a fitted effect of over 45% in size; luciferase light after 4 h
# RE007 growth inh = less growth of the S. pombe RE007 Vpr strain | S. pombe RE007 Vpr strain, BacTiter-Glo ATP luminescence, 24 h; control for the full effect not named in the record | Potency, µM (highest dose often 92.2 µM), for the others: at the top dose activity change, negative = less growth | 360,000 compounds, 0.21% hits | AID 651644; active = well fitted falling curve with a large enough effect; inconclusive = small, poorly fitted or top-dose-only effect; inactive = no such curve, though single readings can be large or run the other way;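 also: % is scaled to controls: 0 for no effect and ±100 for the full control effect; nearly all actives have a fitted effect of over 50% in size; the assay follows cell death caused by Vpr and the record does not say whether a fall means rescue or toxicity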
#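 Fission yeast strain RE007, carrying one chromosomally integrated HIV-1 vpr copy, was seeded at OD 0.01 in PMG+AL medium with 23 nL pinned compound. After 24 h at 30 °C and 99% humidity, viability was read by BacTiter-Glo luminescence.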
# Cruzain noTriton = blocks cruzain activity in detergent-free assay | 200,000 compounds, 2.3% hits | P25779 | Potency, µM, for inactives: max response, negative = inhibition, usual class: inhibitors | purified cruzain, Z-FR-AMC fluorescence, no detergent | AID 1476;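 also: plate controls were enzyme without inhibitor for no effect and buffer without enzyme for full effect; nearly all actives have a fitted effect of over 40% in size; top concentration of the series not given in the record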
#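 Detergent-free condition (0.00005% Triton X-100) in acetate buffer pH 5.5 with DTT. 1.5 nM enzyme and compound were pre-mixed 15 min, then 2 uM Z-FR-AMC substrate added; reaction progress from fluorescence change between first and third reads (60 s).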
# Lassa entry inh = inhibitors of Lassa virus binding or cell entry | Lassa virus pseudotype entry inhibition, cell reporter; control for the full effect not named in the record | Potency, µM (top dose mostly 37.9 µM), for the others: at the top dose activity change, negative = inhibition, most hits filed as inhibitors | 300,000 compounds, 1.2% hits; active means well fitted inhibition curve with a large enough effect; inconclusive means small, poorly fitted or top-dose-only effect, or effect the other way; inactive means flat fitted curve, though single readings scatter; tested in HEK293 cells; also: % is scaled to controls: 0 for no effect and ±100 for the full control effect; nearly all actives have a fitted effect of over 50% in size; luciferase read-out
# SARS PLP yeast = blocks SARS-CoV papain-like protease in a yeast assay; S. cerevisiae expressing SARS-CoV PLpro, growth rescue; control for the full effect not named in the record; AID 485353; 330,000 compounds, 0.19% hits; Potency, µM (top dose mostly 32.9 µM), for the others: at the highest dose activity, positive = growth rescue; active means well fitted rising curve with a large enough effect; inconclusive means small, poorly fitted or top-dose-only effect; inactive means no such curve, though single readings can be large or run the other way; also: 0% is about no effect; nearly all actives have a fitted effect of over 55% in size; growth read by luminescence after 48 h
# NS1 function inh = inhibitors of influenza NS1 protein function. S. cerevisiae slowed by influenza A NS1, growth recovery by OD600. Potency, µM (series often up to 46.1 µM), for inactives: at the highest dose activity, positive = more growth. 270,000 compounds, 0.4% hits; active means well fitted rising curve with a large enough effect; inconclusive means small, poorly fitted or top-dose-only effect; inactive means no such curve, though single readings can be large or run the other way; also: nearly all actives have a fitted effect of over 50% in size
#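 Recovery from NS1-induced slow growth read by OD600 in budding yeast switched to galactose assay medium (pH 6.0, -URA) at 1:100 dilution. Compound 23 nl per well; the matching strain lacking NS1 serves as control.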
# Numbers without * were called inactive; ? = inconclusive; . = not tested or not shown; & = joins results of further samples; [ ] = another dose, or the depositor's remark. Unless noted, calls follow the shape of the dose curve; as a rule, active = well fitted curve in the direction sought with a large enough effect; inconclusive = small, poorly fitted or top-dose-only effect, or another doubt; inactive = no such curve, though single readings can be large; an effect the other way counts as inactive or inconclusive. Potency is read from the fitted curve at half-maximal effect. Compounds as they come, and some 4.6% of all compounds hit somewhere here.
SMILES,Cruzain inh Det,Marburg entry inh,StopGo reporter,RE007 growth inh,Cruzain noTriton,Lassa entry inh,SARS PLP yeast,NS1 function inh
COc1ccc(NC(=O)c2sc3nc(-c4ccc(OC)cc4)cc(C(F)(F)F)c3c2N)cc1,0.9%,-1%[46.1 µM],-8%,.,8%,1%[46.1 µM],.,.
Cc1cc([N+](=O)[O-])nn1CC(=O)NCCc1c[nH]c2ccccc12,.,?,-13%,-9%,.,?,1%,.
O=[N+]([O-])c1ccc2nc(CCCc3nc4ccc([N+](=O)[O-])cc4[nH]3)[nH]c2c1,.,5%[46.1 µM],7%,0%,.,21%[46.1 µM],-1%,-1%
Cc1oc(-c2ccc(F)cc2)nc1CN1CCCC(C(=O)N2CCOCC2)C1 (stereo not drawn),.,-4%[46.1 µM],-10%,-7%,.,8%[46.1 µM],5%,8%
O=C(Nc1cccc(-c2nc3ncccc3o2)c1)c1ccc(-c2cccc(Cl)c2Cl)o1,-24%,6%[46.1 µM],11µM*,.,-21%,-19%[46.1 µM],.,.
Cc1ccc(C(O)P(=O)(OCCC(C)C)c2ccc(N(C)C)cc2)cc1 (stereo not drawn),.,.,11%,13%,.,.,0%,4%
COc1ccc(-c2nnc(SC(C)C(=O)Nc3nccs3)n2-c2ccccc2)cc1OC (stereo not drawn),-0.6%,14%,-13%,-2%,?,-11%,2%,-27%
Cn1c(=O)c2c(SCC(=O)Nc3ccc(F)cc3F)nc(C3CCCC3)nc2n(C)c1=O,0.6%,.,?,.,-1%,2%[46.1 µM],.,.
COc1ccc(NC(=O)C2CCCN(S(=O)(=O)c3cccs3)C2)cc1 (stereo not drawn),-4.4%,-14%[46.1 µM],-27%,.,-14%,12%[46.1 µM],.,.
O=C(COc1ccc(C(=O)c2ccccc2)cc1)NC1CCCCC1,-1.2%,?,-18%,2%,4%,3%,-4%,-3%
CCOc1ccc(N(C)C(=O)c2oc(=O)c3ccccc3c2-c2ccccc2)cc1,-2.5%,-20%[46.1 µM],?,.,7%,-16%[46.1 µM],.,.
CCn1c(NC(=O)c2ccc(F)cc2)c2ccccc2nc1=O,1.1%,-16%,-13%,0%,-5%,2%,-10%,5%
Cc1ccc2c(c1)C1(OCCCO1)C(=O)N2CC#N,.,.,-11%,6%,.,.,8%,-13%
COc1cccc(N=CC2=C(O)CC(C)(C)CC2=O)c1,-5.9%,?,21%,?,-10%,6%,.,30%
COc1ccc(C(=O)NCCn2cc(SCC(N)=O)c3ccccc32)cc1,.,.,?,-7%,.,.,0%,0%
Cc1cccc(N2CN(Cc3ccco3)CNC2=S)c1,-1.5%,14%,-9%,-2%,-5%,10%,13%,0%
CC(=O)c1ccc(NS(=O)(=O)c2cc3c(cc2C)N(C)CCO3)cc1,.,.,23%,17%,.,.,0%,6%
COc1ccc(NC(=O)c2ccc(NC(=O)CCS(=O)(=O)c3cccs3)cc2)cc1,-3.3%,?,-11%&4%,3%,-18%,-3%&20%[46.1 µM],-13%,14%
CCc1cccc(C)c1NC(=O)CN(C)S(=O)(=O)c1cccc2nsnc12,-2.9%,0%[46.1 µM],-21%,.,5%,-2%[46.1 µM],.,.
COc1cccc(NC(=O)C(C)Oc2ccccc2)c1 (stereo not drawn),2.1%,?,20%,11%,3%,13%,0%,-2%
COc1cccc(C2NC(=S)NC(C)=C2C(=O)c2ccccc2)c1OC (stereo not drawn),.,?,-1%,-12%,.,?,-2%,.
COc1ccc(C)cc1NC(=O)c1cc(S(=O)(=O)N2CCOCC2)cn1C,-0.6%,.,-20%&0%,-6%,5%,-1%[46.1 µM],5%,-7%
NNC(=O)c1cc(-c2ccc(N)cc2)nc2ccc(Br)cc12,.,.,4%,4%,.,.,1%,?
Cc1c(C(=O)N(C)Cc2ccccc2)oc2ccc(S(=O)(=O)N3CCCC3)cc12,-6.4%,?,?,-16%,?,?,-21%,-52%
Cc1ccc2c(C(=O)CN3CCC4(CC3)OCCO4)c(C)[nH]c2c1,1.4%,0%[46.1 µM],-10%,-22%,4%,2%,2%,-3%
CCOC(=O)/C(=N\Nc1ccccc1)N1CC1,.,-1%[46.1 µM],14%,-1%,.,14%,-9%,-7%
Cc1ccccc1NC(=O)c1nnn(-c2ccc3c(c2)OCCO3)c1N,.,?,-3%,6%,.,?,-7%,-9%
O=C(COC(=O)Cc1cccs1)Nc1ccccc1Cl,.,8%[46.1 µM],7%,-7%,.,-9%,-6%,.
Cc1cc[n+](-c2[nH]c(=O)sc2/C=N/N=C(\[O-])c2ccccc2)cc1,.,0%[46.1 µM],-12%,5%,.,20%[46.1 µM],0%,7%
COC(=O)c1nn(-c2ccccc2)c(-c2ccccc2)c1C(=O)c1ccccc1,-2.3%,-15%,0%,0%,12%,-14%,-6%,7%
COC(=O)c1[nH]c2c(c1C)C(=O)CC(c1cc(OC)c(OC)c(OC)c1)C2 (stereo not drawn),.,.,?,-1%,.,.,0%,-1%
OCc1cn(-c2ccccc2)nc1-c1cc2ccccc2o1,.,.,87%[activator],-13%,.,.,-1%,-2%
Cc1ccc(CN2C3=NCCCN3c3ccccc32)cc1,-2.2%,?,-16%,-16%,0%,-1%,11%,-6%
O=C(CCn1c(=O)c2sccc2n(Cc2cccc(F)c2)c1=O)NCc1ccc2c(c1)OCO2,-1.6%,5%[46.1 µM],-9%,.,-7%,-1%[46.1 µM],.,.
COc1ccc(Nc2ccncc2[N+](=O)[O-])cc1,.,0%[46.1 µM],-14%,-15%,.,.,5%,.
O=C(CSc1nc2ccccc2nc1Cc1ccc(Cl)cc1)Nc1ccc2c(c1)OCO2,3.1%,.,-6%,.,-9%,15%[46.1 µM],.,.
O=C(NCCN1C(=O)S/C(=C\c2cccnc2)C1=O)c1ccc(S(=O)(=O)N2CCCC2)cc1,.,-8%[46.1 µM],-1%,-6%,.,-7%[46.1 µM],-4%,6%
COc1ccc(OC)c(Cc2nnc(CCC(=O)NCc3nc4ccccc4s3)o2)c1,.,-2%[46.1 µM],11%,1%,.,6%,0%,1%
CCOc1ccc(NC(=O)Nc2nc(SCC)ns2)cc1,.,?,-30%,-3%,.,?,1%,-14%
Cc1ccc(NS(=O)(=O)c2ccc3c(c2)NC(=O)CO3)cc1,.,.,44%[activator],-3%,.,.,0%,9%
Cc1ccc(-c2nnc3c4ccccc4c(C)nn23)cc1S(=O)(=O)N1CCN(C)CC1,.,2%&2%,19%,10%,.,12%,.,-22%
O=C(O)c1ccc(COc2c(F)c(F)c(F)c(F)c2F)o1,28µM*,-4%&-4%,-13%,-13%,16µM*,7%,0%,4%
CCc1noc(C)c1C(=O)N1CCN(S(=O)(=O)c2ccc(Cl)s2)CC1,.,-1%[46.1 µM],-4%,-9%,.,-2%,3%,.
O=C(NCc1ccc(Cl)cc1)c1cc2cccc3c2n1CCS3,-8.5%,.,-10%,.,?,?,.,.
Cc1ccc2nc(C)c3c(c2c1)N(c1ccc(F)cc1)CC3,.,?,-26%,-4%,.,-13%,0%,-57%
COc1cccc(NS(=O)(=O)c2cc(C)ccc2OC)c1,-1.6%,-8%,76%[activator],-12%,-4%,-4%,6%,?
COCCNC(=O)COc1ccc(C)cc1C(=O)c1cc(C#N)c(=O)n(C2CC2)c1,.,5%[46.1 µM],9%,-25%,.,.,0%,.
CC(C)(C)c1ccc(OCC(=O)NN2Cc3ccccc3C2=N)cc1,.,0%[46.1 µM],-13%,-4%,.,14%[46.1 µM],2%,.
COc1ccc(CCNC(=O)c2ccc3[nH]c(C)c(C)c3c2)cc1OC,-5.7%,.,0%,.,-6%,?,.,.
CCC1Cc2c(nc(N)c3c(N)nc(N4CCOCC4)c(C#N)c23)O1 (stereo not drawn),.,-2%[46.1 µM],-14%,-13%,.,17%,2%,.
CC(=O)Oc1cc2oc(=O)cc(C)c2cc1Cl,.,?,-7%,-16%,.,-13%[46.1 µM],0%,-34%
CN(C(=O)COC(=O)c1cc(S(=O)(=O)N2CCOCC2)ccc1F)C1CCS(=O)(=O)C1 (stereo not drawn),.,-6%,-10%,-6%,.,-13%,-1%,.
CC(C)c1nc(N2CCOCC2)c(C#N)c2c1COC(C)(C)C2,0.4%,?,-15%,18%,23%,?,2%,-10%
COc1ccc(C2C(C(=O)Nc3ccccc3)=C(C)Nc3nc(-c4ccc(Cl)cc4)nn32)cc1 (stereo not drawn),2.9%,-7%[46.1 µM],?,.,12%,?,.,.
CC(CNC(=O)COC(=O)c1cccs1)c1ccccc1 (stereo not drawn),.,-17%,-2%,-24%,.,-1%,4%,.
c1ccc(N2CCN(Cc3cn4ccccc4n3)CC2)cc1,.,.,1%,-4%,.,.,0%,-3%
Cc1ccccc1NC(=O)Cn1cc(C(=O)c2ccco2)c2ccccc21,-9.4%,-7%[46.1 µM],-20%,.,7%,-3%[46.1 µM],.,.
CC(=O)Nc1ccc(/C(C)=N/NS(=O)(=O)c2ccc(C)cc2)cc1,8.1%,19%,67%[activator],-8%,5%,-27%,-1%,-11%
Cc1cc(C)cc(C(=O)Nn2cnnc2)c1,.,3%,-18%,5%,.,19%,-4%,18%
CC(=O)Nc1ccc(Cl)cc1C(=O)O,4.9%,5%&5%[46.1 µM],-3%,0%,4%,11%,?,-2%

# Copied from the listing (two entries):
SMILES,Cruzain inh Det,Marburg entry inh,StopGo reporter,RE007 growth inh,Cruzain noTriton,Lassa entry inh,SARS PLP yeast,NS1 function inh
COc1ccc(C2C(C(=O)Nc3ccccc3)=C(C)Nc3nc(-c4ccc(Cl)cc4)nn32)cc1 (stereo not drawn),2.9%,-7%[46.1 µM],?,.,12%,?,.,.
CC(CNC(=O)COC(=O)c1cccs1)c1ccccc1 (stereo not drawn),.,-17%,-2%,-24%,.,-1%,4%,.

# Bioassay records (PubChem BioAssay)
